# StopGo reporter: FMDV 2A StopGo reporter, luciferase signal; human cells with a luciferase reporter of 2A StopGo recoding; control for the full effect not named in the record; Potency, µM (top dose mostly 57.9 µM), without a hit: top-dose signal change, negative = less light; 1.2% of 410,000 active; active = well fitted falling curve with a large enough effect; inconclusive = small, poorly fitted or top-dose-only effect; inactive = no such curve, though single readings can be large or run the other way; tested in HEK293T cells; also: nearly all actives have a fitted effect of over 45% in size; luciferase light after 4 h
# RE007 growth inh: less growth of the S. pombe RE007 Vpr strain | S. pombe RE007 Vpr strain, BacTiter-Glo ATP luminescence, 24 h; control for the full effect not named in the record | Potency, µM (series often up to 92.2 µM), for inactives: top-dose activity change, negative = less growth | 0.21% of 360,000 active; active = well fitted falling curve with a large enough effect; inconclusive = small, poorly fitted or top-dose-only effect; inactive = no such curve, though single readings can be large or run the other way;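 also: nearly all actives have a fitted effect of over 50% in size; the assay follows cell death caused by Vpr and the record does not say whether a fall means rescue or toxicity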
#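 Fission yeast strain RE007, carrying one chromosomally integrated HIV-1 vpr copy, was seeded at OD 0.01 in PMG+AL medium with 23 nL pinned compound. After 24 h at 30 °C and 99% humidity, viability was read by BacTiter-Glo luminescence.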
# * hit, by the source's call; ? = inconclusive; [ ] = dose if it differs, or a comment. % is scaled to controls: 0 for no effect and ±100 for the full control effect; potency is read from the fitted curve at half-maximal effect.
SMILES,StopGo reporter,RE007 growth inh
Cc1ccc(S(=O)(=O)N2C[C@H]3[C@H]4C(=O)N(c5ccccc5)C(=O)[C@H]4C[C@H](OC(=O)Nc4cccs4)[C@@]3(O)C2)cc1,-21%,-25%
O=C(NCc1cccc(Cl)c1)c1ccc(S(=O)(=O)N2CCCCC2)cc1,-19%,-15%
CCCCC[C@@H]1[C@H]2[C@H]3C(=O)N(c4ccccc4)C(=O)[C@H]3CC(=O)[C@H]2[C@H](c2ccccc2)N1S(=O)(=O)c1ccc(C)cc1,-4%,4%
CCN1C(=O)[C@H]2[C@@H](c3ccc(C)cc3)N[C@]3(CCCN(Cc4ccc(OC)cc4)C3=O)[C@H]2C1=O,-18%,5%
CC(=O)C[C@@H]1OC[C@H](C(C)C)N1S(=O)(=O)c1ccc(C)cc1,-17%,0%
CC1=C(C(=O)N2CCOCC2)CC(CC(=O)NCCCN(C)C)C(=O)N1CCCN1CCCC1=O (stereo not drawn),0%,-11%
O=C(C1=C[C@@H](c2ccc(C(F)(F)F)cc2)C[C@@H](OCCCCO)O1)N1CCCCCCC1,-11%,10%
Cc1ccc(-c2nc3ccc(Cl)cn3c2Cc2ccccc2)cc1,27%,-11%
COc1cccc(-c2cnc(C(O)c3c(C)cc(C)cc3C)[nH]2)c1 (stereo not drawn),-18%,-27%[18.4 µM]
CCOc1ccc2nc(NC(=O)C3(C)CC3(Br)Br)sc2c1 (stereo not drawn),27%,?

# The final 2 entries of the section before lead into the next:
SMILES,StopGo reporter,RE007 growth inh
COc1cccc(-c2cnc(C(O)c3c(C)cc(C)cc3C)[nH]2)c1 (stereo not drawn),-18%,-27%[18.4 µM]
CCOc1ccc2nc(NC(=O)C3(C)CC3(Br)Br)sc2c1 (stereo not drawn),27%,?
CCCc1c(C)nc2scc(-c3ccc(Cl)cc3)n2c1=O,-22%,-16%
COCCNC(=O)C1CCCN(Cc2ccccc2F)CC1 (stereo not drawn),-20%,-8%
Cc1cc(Cl)ccc1C(O)c1ncc(-c2cccc(C(F)(F)F)c2)[nH]1 (stereo not drawn),9%,-4%
COc1ccc(S(=O)(=O)Nc2cc3c4c(c2)CC(=O)N4CCC3)cc1OC,34%[activator],1%
Cc1ccc(S(=O)(=O)N2CCOCC2)cc1C(=O)NCCCN1CCCC1=O,-18%,-15%
COCCNC(=O)C1(C)CCN(C(=O)c2ccc3ccccc3n2)C1 (stereo not drawn),-7%,4%[18.4 µM]
Cc1cccc(CNC(=O)Nc2nnc([C@@H]3C[C@H](O)[C@@H](CO)O3)s2)c1,-3%,1%[18.4 µM]
C=CCC1(CC=C)CC(Cc2cnccn2)N(C(=O)OC(C)(C)C)C1 (stereo not drawn),-27%,1%
NC(=O)c1cccc(-c2ccnc3c2CC(C(=O)Nc2cccc(Oc4ccccc4)c2)O3)c1 (stereo not drawn),-20%,-6%[18.4 µM]
C=CCNC(=O)c1c(CSc2ccc(Cl)cc2)noc1C(=O)NCc1ccccc1,?,-12%
COc1cccc(NC(=O)CCC2CCN(C(=O)C(OC)c3ccccc3)CC2)c1 (stereo not drawn),-23%,19%
COc1ccc(CN2C(=O)C(CC(=O)NCC3CCCCC3)CC(C(=O)N3CCOCC3)=C2C)cc1 (stereo not drawn),-20%,3%
Cc1nn(-c2ccccn2)c2c1C(=O)CC(C)(C)C2N=[N+]=[N-] (stereo not drawn),-14%,7%
Cc1ccc2nc(C3CCCCC3)c(Cc3cccc(Cl)c3)n2c1,-17%,?
CN(C(=O)c1cccc(NC(=O)Cc2cccc(NC(=O)C3CCN(C(=O)C4CCCCC4)CC3)c2)c1)C1CCC1,-19%,8%
CNc1ncnc2c1ncn2[C@H]1CN(Cc2cccc3ccccc23)C[C@@H](CO)O1,0%,-7%
C[N+](C)(CCOc1ccccc1)Cc1ccccc1,-29%,-3%
C#CCN(C[C@@H]1[C@@H](OC(=O)Nc2cccs2)[C@@H](OC(=O)Nc2cccs2)Cn2c(=O)n(CCCCCC)c(=O)n21)S(=O)(=O)c1ccc(C)cc1,-25%,6%
Cc1cc(Cl)ccc1OCC(=O)OCC(=O)NCCNC(=O)COC(=O)COc1ccc(Cl)cc1C,-13%,-8%
CCOC(=O)[C@]12CCC=C1N(Cc1ccccc1)C(=O)[C@H](CC(=O)NCc1cccc(C(F)(F)F)c1)C2,-12%,1%
COc1ccc(Cl)cc1-c1cc(C(=O)NC2CCCCC2)[nH]n1,20%,8%[18.4 µM]
COCCCNC(=O)C[C@@H]1C[C@@]2(C(=O)OC)CCCCC=C2N(CCc2ccc(OC)c(OC)c2)C1=O,-13%,6%
O=C(Nc1ccc(S(=O)(=O)NC2=NCCCCC2)cc1)c1cccc(OC(F)F)c1,-15%,-17%
CCCCN1C(=O)C(CC(=O)NCc2cccc3ccccc23)CC(C(=O)N2CCOCC2)=C1C (stereo not drawn),-9%,11%
CC1(C(=O)NS(=O)(=O)c2cccc(OC(F)F)c2)CCN1C(=O)c1ccccc1 (stereo not drawn),-18%,2%
CCC(NC(=O)c1cncc(Br)c1)c1ccccc1 (stereo not drawn),-4%,-4%
O=C(Nc1cccc2cccnc12)c1ccc2sc([C@@H]3O[C@H](CO)[C@H](O)[C@H](O)[C@H]3O)nc2c1,0%,6%[18.4 µM]
Clc1cccc(Cc2c(-c3ccccc3)nc3ccc(Br)cn23)c1,21%,34%
NC(CCC(=O)NC(CS)C(=O)NCC(=O)O)C(=O)O (stereo not drawn),-24%,-17%
Cn1nc(C(C)(C)C)cc1NC(=O)C1(C)CCN1C(=O)C1(c2ccccc2)CC1 (stereo not drawn),-22%,10%

# Seven of the compounds above, with values under each structure:
# Each structure is followed by: StopGo reporter, RE007 growth inh
> COc1ccc(Cl)cc1-c1cc(C(=O)NC2CCCCC2)[nH]n1
    20%, 8%[18.4 µM]
> COCCCNC(=O)C[C@@H]1C[C@@]2(C(=O)OC)CCCCC=C2N(CCc2ccc(OC)c(OC)c2)C1=O
    -13%, 6%
> O=C(Nc1ccc(S(=O)(=O)NC2=NCCCCC2)cc1)c1cccc(OC(F)F)c1
    -15%, -17%
> CCCCN1C(=O)C(CC(=O)NCc2cccc3ccccc23)CC(C(=O)N2CCOCC2)=C1C (stereo not drawn)
    -9%, 11%
> CC1(C(=O)NS(=O)(=O)c2cccc(OC(F)F)c2)CCN1C(=O)c1ccccc1 (stereo not drawn)
    -18%, 2%
> CCC(NC(=O)c1cncc(Br)c1)c1ccccc1 (stereo not drawn)
    -4%, -4%
> O=C(Nc1cccc2cccnc12)c1ccc2sc([C@@H]3O[C@H](CO)[C@H](O)[C@H](O)[C@H]3O)nc2c1
    0%, 6%[18.4 µM]

# (next part)
SMILES,StopGo reporter,RE007 growth inh
CCCCCNC(=O)C(C1CC1)n1c(=O)c(-c2cc3ccccc3[nH]2)nc2ccccc21 (stereo not drawn),-3%,2%
Cc1ccc(S(=O)(=O)N2CCN(C(=O)CN3CCN(c4ccc(O)cc4)CC3)CC2)cc1,-15%,7%
COc1ccccc1CCNC(=O)c1c(N)[nH]c(C(=O)c2ccccc2)c1-c1ccc(Br)cc1,-7%,3%
COC(=O)c1ccc(COc2cccn3c(N(C)C(=O)CCC4CCCC4)c(C)nc23)cc1,35µM*,-5%[18.4 µM]
CC(=O)Nc1cccc(-c2cc(NC(C)=O)c3ncc(-c4ccccc4)n3c2)c1,-22%,-1%[18.4 µM]
Cc1cccc(C)c1NC(=O)C(c1ccccc1)n1c(=O)c(-c2cc3ccccc3[nH]2)nc2ccccc21 (stereo not drawn),6%,-7%
COc1ccc(OC)c(CCNC(=O)Cc2ccc(NC(=O)C3=C(C)OCCS3)cc2)c1,17%,-15%
Cc1nnc(SCC(=O)NC2CCCCC2)n1-c1ccccc1,-9%,-10%
O=C(Cc1cccc(NC(=O)C2CCCN(C(=O)C3CCCC3)C2)c1)Nc1ccc(C(=O)N2CCOCC2)cc1 (stereo not drawn),3%,-6%
COCCNC(=O)C1CCCN(C(=O)Cc2ccc(F)cc2)CC1 (stereo not drawn),-18%,1%
COc1ccc(Cn2cc(CN3CCS(=O)(=O)N(Cc4ccc(-c5cccc(Cl)c5)cc4)C(C)C3=O)nn2)cc1 (stereo not drawn),-25%,-10%
COc1ccc(CNC(=O)c2sc(=O)n(Cc3cc(Cl)ccc3OC)c2C)cc1,0%,8%[18.4 µM]
Cc1ccc(C)c(NC(=O)CN(C)C(=O)c2ccccn2)c1,1%,8%
CN(CCc1ccccc1)C(=O)c1cccc(NC(=O)Cc2cccc(NC(=O)C3CCCN(C(=O)CCc4ccccc4)C3)c2)c1 (stereo not drawn),?,2%
CN(CCc1ccccc1)C(=O)c1ccc(NC(=O)Cc2cccc(NC(=O)C3CCN(C(=O)C4CC4)CC3)c2)cc1,-2%,10%
CC(C)n1c(=O)c2ccccc2n1Cc1cn(C2CCCC2)nn1,-17%,-17%
Nc1sc(-c2ccccc2)cc1C(=O)N1CCNCC1,2%,0%
O=C(Cc1ccc(NC(=O)C2CCCN(C(=O)C3CCCCC3)C2)cc1)Nc1cccc(C(=O)N2CCCCC2)c1 (stereo not drawn),-16%,-6%
COc1cc(C(O)c2nc(-c3ccccc3C)cs2)ccc1F (stereo not drawn),0%,4%[18.4 µM]
CN(CC(=O)Nc1cc(Cl)ccc1-n1cncn1)Cc1ccccc1N1CCOCC1,-7%,11%
COc1cc(C#N)ccc1OCC(=O)Nc1cccc(S(=O)(=O)N(C)c2ccccc2)c1,?,-11%
C[C@H]1CN([C@@H](C)CO)C(=O)CCCn2nncc2CO[C@@H]1CN(C)C(=O)NC1CCCCC1,4%,8%
Cc1cccc(S(=O)(=O)NC(=O)C2(C)CCN2C(=O)c2cccc(F)c2)c1 (stereo not drawn),-8%,-11%
Cc1ccc(S(=O)(=O)N2CC(CO)=CCC2c2ccccc2)cc1 (stereo not drawn),7%,-9%
Cc1cn(C2CC(O)C(O)C(CO)O2)c(=O)[nH]c1=O (stereo not drawn),-17%,3%[18.4 µM]
Cn1c(CSc2nc3ccccc3s2)nnc1SCC(=O)NCc1cccnc1,9%,-12%
C[C@@H]1CCCCO[C@H](CN(C)Cc2ccc(C(=O)O)cc2)[C@H](C)CN([C@@H](C)CO)C(=O)c2cc(NC(=O)Nc3ccc(C(F)(F)F)cc3)ccc2O1,?,-3%
COc1ccc(NS(=O)(=O)c2cccc(C(=O)N3CCN(C/C=C/c4ccccc4)CC3)c2)cc1,-2%,-9%
COCCNC(=O)C1(C)CCN(C(=O)c2nc(C)oc2C)C1 (stereo not drawn),-3%,-7%[18.4 µM]
CCCCCCCCN1C(=O)[C@H](CC(=O)NCCCOCCCC)C[C@@]2(C(=O)OC)CC(C)(C)CC=C12,-7%,-1%
CCCCc1c(-c2cccc(Cl)c2)ncn1CCc1ccccc1OC,22µM*,45µM*
OC[C@@H]1CN(Cc2ccc(-c3ccccc3)cc2)C[C@H](n2cnc3c(NCc4ccc(F)cc4)ncnc32)O1,28µM*,3%
Cc1ccc(F)c(S(=O)(=O)NC(=O)C2(C)CCN2C(=O)Cc2ccc(C(C)(C)C)cc2)c1 (stereo not drawn),-15%,2%
COc1ccc(CC(N)c2csc(Nc3cc(NCCCO)ncn3)n2)cc1 (stereo not drawn),-7%,-8%
O=C(NN=Cc1ccc2c(c1)CCC2)c1cccc([N+](=O)[O-])c1,41%[activator],-24%
CC(C)C[C@@H](CN1CCCC1CN1C(=S)NC[C@@H]1Cc1ccccc1)N1C[C@H](Cc2ccc(O)cc2)N(CCc2ccccc2)C1=S (stereo partly drawn),-12%,-25%
O=C(O)C[C@H]1c2cc(C(F)(F)F)ccc2S(=O)(=O)N1C1CCCCC1,3%,7%
COCCCn1c(SCC(=O)c2c(N)n(C3CC3)c(=O)[nH]c2=O)nnc1-c1ccccc1Cl,-16%,1%
COc1ccc(C(O)c2nc(-c3ccoc3)cs2)cc1 (stereo not drawn),6%,7%
CCc1nc2c(OCCC3CCCCC3)cccn2c1N(C)C(=O)CC(C)C,?,-11%[18.4 µM]
CCc1nc2ccc(C(=O)N3CCN(c4ccccc4)CC3)cn2c1N(C)CCC(C)C,-16%,-9%[18.4 µM]
Cc1ccc(S(=O)(=O)N(C)C[C@H]2Oc3cc(Br)ccc3S(=O)(=O)N([C@H](C)CO)C[C@@H]2C)cc1,-14%,-9%
O=C(OCc1ccccc1)N1CCC2CC1c1cc(-c3ccc(F)cc3)ccc12 (stereo not drawn),7%,-3%
COc1ccccc1-c1cccc(-c2nc(C(=O)Nc3nccs3)cc3c2[C@@H](CCO)N(C(=O)CC2CC2)C3)c1,0%,5%
COc1ccc(-c2coc3c(C(=O)NCC(C)C)cccc23)c(C)c1,?,13%[18.4 µM]
COc1cc(C(=O)N2CCCC(c3cc(C(=O)NCc4ccc(F)cc4)no3)C2)cc(OC)c1C (stereo not drawn),-23%,4%
Cn1c(-c2ccccc2)cc(=O)cc1-c1ccccc1,1%,-6%
COc1ccccc1-c1cccc([C@@H]2C[C@H]3[C@H](CON3C)CN2C(=O)C(C)(C)C)c1,-2%,3%
OC[C@@H]1CN(Cc2cccnc2)C[C@H](n2cnc3c(N4CCOCC4)ncnc32)O1,-14%,-6%

# Some of the compounds tested; count on the stated rates, not on these rows.
